# High-throughput results from PubChem BioAssay.
# CtBP-E1A blk: inhibitors of CtBP/E1A interaction; AlphaScreen GST-E1A/His-CtBP binding, 1536-well; hits give low values; control for the full effect not named in the record; activity change, % (concentration not given with the values); hit rate 0.49% among 340,000; in the data active means activity change below about -65%; inconclusive means about -30% to -65%; inactive means above about -30%; further: on the % scale 0 is the no-effect control and ±100 the full control effect
#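 AlphaScreen with 125 nM GST-E1A and 125 nM His-CtBP (5X stocks) in Tris pH 8.0, 300 mM NaCl, BSA, Tween 20, TCEP. Compounds preincubated 2 h at 37 deg C, then glutathione donor/nickel acceptor beads added for 1 h at 37 deg C in dark.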
# Six1-Eya2 blk: blocks human Six1 binding to Eya2; Q15475+O00167; AlphaScreen GST-Six1/His-Eya2 binding, biochemical; hits give low values; control for the full effect not named in the record; activity change, % (concentration not given with the values); hit rate 0.56% among 360,000; AID 651725; in the data active = activity change below about -65%; inconclusive = about -30% to -65%; inactive = above about -30%; further: on the % scale 0 is the no-effect control and ±100 the full control effect
# Target sequence (O00167 whole entry, looked up): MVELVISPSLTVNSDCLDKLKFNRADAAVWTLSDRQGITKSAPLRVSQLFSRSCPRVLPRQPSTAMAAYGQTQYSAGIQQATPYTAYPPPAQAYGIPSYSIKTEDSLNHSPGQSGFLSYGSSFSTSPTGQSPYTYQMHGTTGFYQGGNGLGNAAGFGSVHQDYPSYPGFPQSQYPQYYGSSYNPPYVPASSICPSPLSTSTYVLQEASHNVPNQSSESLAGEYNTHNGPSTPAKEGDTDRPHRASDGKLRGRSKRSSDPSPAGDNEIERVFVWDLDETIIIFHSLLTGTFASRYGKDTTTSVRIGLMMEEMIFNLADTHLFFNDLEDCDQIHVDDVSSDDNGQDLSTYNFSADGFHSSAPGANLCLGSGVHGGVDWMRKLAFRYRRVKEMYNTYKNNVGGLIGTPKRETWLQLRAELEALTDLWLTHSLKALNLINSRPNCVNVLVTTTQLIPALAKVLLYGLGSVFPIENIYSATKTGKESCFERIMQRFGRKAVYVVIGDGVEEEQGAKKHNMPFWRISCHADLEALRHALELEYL
# Target sequence (Q15475 whole entry, looked up): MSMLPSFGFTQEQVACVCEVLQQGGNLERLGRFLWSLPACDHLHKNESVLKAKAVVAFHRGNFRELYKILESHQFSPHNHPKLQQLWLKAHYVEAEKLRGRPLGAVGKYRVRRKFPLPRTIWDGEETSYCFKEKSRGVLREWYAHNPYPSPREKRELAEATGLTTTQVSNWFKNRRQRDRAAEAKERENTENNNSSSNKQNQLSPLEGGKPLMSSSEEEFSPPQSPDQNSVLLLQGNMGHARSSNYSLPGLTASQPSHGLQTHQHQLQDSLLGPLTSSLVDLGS
#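 Six1/Eya2 binding was read as AlphaScreen signal after compounds were pinned into GST-Six1 plus His-tagged Eya2 (5X stock 250/500 nM) in pH 8.0 Tris/NaCl/TCEP buffer, beads added, then incubated 1 h, 37 C, dark.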
# gsp antag: antagonists of gsp mutant (McCune-Albright syndrome) | hit rate 0.4% among 340,000 | gsp-mutant cells, cAMP HTRF, 30 min; control for the full effect not named in the record | Potency, µM (doses to about 76.9 µM), without a hit: at the top dose activity change, negative = inhibition, actives largely listed as inhibitors; active = falling curve of any shape with a large fitted effect; inconclusive = falling curve, mostly with a smaller effect; inactive = flat or rising curve; cell line not stated here;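 further: intracellular cAMP measured with PDE inhibitor Ro 20-1724 present during compound exposure; potency means the concentration at half of the fitted maximal effect; on the % scale 0 is the no-effect control and ±100 the full control effect; nearly all actives have a fitted effect of over 65% in size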
#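 G418-selected cells were plated in DMEM/10% FBS for 16-24 h at 37C, then treated with compounds plus the PDE inhibitor […] (300 uM solution added) for 30 min at 37C. Intracellular cAMP was measured by HTRF after 30 min lysis at room temperature.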
# D2 PAM: human D2 receptor positive allosteric modulation; P14416; DiscoveRx D2 beta-arrestin cells, luminescence, 90 min; 100% = 57 uM dopamine signal; potentiation, % (concentration not given with the values); hit rate 0.23% among 360,000; AID 624464; active = potentiation of 50% or more; inconclusive = 30% to 50%; inactive = 30% or less;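 further: compound concentration not given in the record; tested on top of an EC20 dose of dopamine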
#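 PathHunter D2 cells, attached overnight at 37 deg C, received compound in DMSO plus dopamine at EC20 (50 nM final) for 90 min at 37 deg C. Beta-arrestin recruitment was read as luminescence after 1 h with detection reagent at ambient temperature.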
# D2 ag: agonists of human D2 dopamine receptor (beta-arrestin) | DiscoveRx PathHunter D2 beta-arrestin, luminescence, 90 min; 100% = 57 uM dopamine signal | activation, % (concentration not given with the values) | hit rate 0.084% among 360,000 | AID 624465; in the data active = activation above about 40%; inconclusive = about 15% to 40%; inactive = below about 15%; further: compound concentration not given in the record; the text of the record calls up to 30% inactive
#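 DiscoveRx PathHunter D2 beta-arrestin cells (2,100/well) attached overnight, then compound-stimulated 90 min at 37 C in HBSS/10 mM HEPES/0.1% Tween-20 buffer; beta-galactosidase complementation read by luminescence after 1 h at ambient temperature. Dopamine 57 uM final (EC100) as control.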
# gsp agonist: gsp mutant agonism | gsp mutant cells, cAMP HTRF, 30 min; control for the full effect not named in the record | hit rate 0.13% among 340,000 | Potency, µM (doses to about 76.9 µM), for the others: top-dose activation (cAMP increase), actives largely listed as activators; active = well fitted activation curve with a large enough effect; inconclusive = small, poorly fitted or top-dose-only effect, or another doubt; inactive = no such curve, though single readings can be large or run the other way; cell line not stated here;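 further: phosphodiesterase inhibitor Ro 20-1724 added with compounds to block cAMP breakdown; potency means the concentration at half of the fitted maximal effect; nearly all actives have a fitted effect of over 60% in size; about a fifth of the inactives were tested at one dose only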
#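 Cells stably selected in G418 were plated at 2000/well, grown 16-24 hr, then given compounds in DMSO with the PDE inhibitor […] (300 uM solution added) for 30 min at 37C; cAMP was read by HTRF.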
# Numbers without * were called inactive; ? = inconclusive; nt = no result given; [ ] = remark or other dose. Compounds as they come; any-hit rate near 1.4%.
SMILES,CtBP-E1A blk,Six1-Eya2 blk,gsp antag,D2 PAM,D2 ag,gsp agonist
CCOc1ccc(NS(=O)(=O)c2ccc3c(c2)N(C(C)=O)CCO3)cc1,-1,0,-7%,-22,-5.1,6%
CCOc1ncccc1C(=O)OCc1ccc(C(=O)OC)o1,5,7,7%,8,0.0,16%
COc1ccc(C(=O)c2c(N)sc3c2CCN(C)C3)cc1,nt,1,7%,-3,-1.6,-11%
COCCc1ncc(CN2CCC(C(=O)Nc3cccc(-c4cscn4)c3)CC2)cn1,-4,4,-3%,-26,-0.7,?
CC1CC(C)CN(C(=O)CN2CCN(Cc3ccc(Cl)cc3)C2=O)C1 (stereo not drawn),5,1,1%,12,2.5,4%
CCN(CC)S(=O)(=O)c1cc(C(=O)Nc2ccc(Cl)cn2)ccc1C,-21,?,-18%,-6,-0.3,-34%[inhibitor]
CC(=O)c1sc(NC(=O)COc2ccccc2)nc1C,3,4,nt,-1,-2.9,23%[15.4 µM]
Cc1cc(NS(=O)(=O)c2ccc(NC(=O)CSc3nnc(-c4ccco4)n3C)cc2)nc(C)n1,-29,?,10%,-6,1.5,-3%
COCc1c(C(=O)N/N=C(/C)c2cccs2)nnn1-c1nonc1N,-5,-1,18%,-6,-1.2,2%[15.4 µM]
CCCNC(=O)c1cc(C2CCCCN2S(=O)(=O)Cc2cccc(C(F)(F)F)c2)on1 (stereo not drawn),5,2,nt,-2,1.3,nt
COc1ccc(-c2cc(-c3ccc(OC)cc3)c(C#N)c(SC)n2)cc1,9,10,1%,-15,-4.2,?
CCCc1cc(CCC)n2nc(N)nc2n1,-2,43,nt,-8,-5.6,-15%
CCCCN1C(=O)C(O)(CC(=O)c2ccccn2)c2ccccc21 (stereo not drawn),-3,1,-14%,-2,-4.7,1%
CN1CCN(C(=O)/C(=C/c2cn(S(=O)(=O)N(C)C)c3ccccc23)NC(=O)c2ccccc2F)CC1,nt,2,1%,-12,3.7,-1%
CCc1nc2ccc(C(=O)NCCN3CCOCC3)cn2c1N(CCC(C)C)CCN(C)C,5,-2,nt,-3,-2.9,nt
COc1cc(OC)cc(C(=O)Nc2ccc(S(=O)(=O)Nc3nc(C)cc(C)n3)cc2)c1,0,-5,-7%,-4,4.8,-1%[15.4 µM]
COc1ccc(Cl)c2sc(N(Cc3cccnc3)C(C)=O)nc12,-4,-6,-13%,-7,1.2,2%
CC1CCCCN1C(=O)CCS(=O)(=O)c1cccc2nonc12 (stereo not drawn),-7,-2,8%,-8,-4.6,9%[15.4 µM]
CCOC(=O)CC(=O)CSc1ccc2nnc(-c3ccc(C)cc3)n2n1,-11,-4,5%,-8,0.6,14%
CCCc1nc2oc3c(OC)ncnc3c2c2c1COC(C)(C)C2,0,2,-16%,-8,-2.1,43%
CCOC(=O)N1CCC(NC(=O)CC2C(=O)NCCN2Cc2ccc(C)cc2)CC1 (stereo not drawn),-5,1,9%,-6,-4.4,-3%[15.4 µM]
CC12CCC(=O)N1C(C(=O)OCC(=O)Nc1sccc1C#N)CS2 (stereo not drawn),0,-1,-7%,-5,-1.5,1%
CCCc1cc(=O)[nH]c(SCC(=O)Nc2ncc(S(=O)(=O)c3ccc([N+](=O)[O-])cc3)s2)n1,nt,-7,-27%,1,0.1,-14%
Cn1c(SCC(=O)N2CCCC2=O)nc2ccccc21,0,9,1%,-4,-3.6,0%
Cc1cccc(-c2noc(-c3ccc(F)cc3)n2)c1,20,22,-2%,-13,-0.8,1%
SMILES,CtBP-E1A blk,Six1-Eya2 blk,gsp antag,D2 PAM,D2 ag,gsp agonist
CN(C(=O)Cc1noc2ccccc12)c1ccccc1,10,0,-6%,-5,-1.1,-1%[15.4 µM]
COc1ccc(C(=O)NCC(=O)OCC(=O)N2CC(C)OC(C)C2)cc1OC (stereo not drawn),-1,7,19%,1,-4.3,-6%[15.4 µM]
CC(=O)N1Cc2ccccc2CC1C(=O)NCc1ccccc1F (stereo not drawn),4,6,8%,-1,-2.2,6%[15.4 µM]
CN1C(c2ccc(F)cc2)=CS/C1=C(/C#N)c1nnc(N2CCOCC2)n1-c1ccccc1,-8,2,-24%,-2,-1.5,?
COc1ccc(C(=O)Oc2cccnc2)cc1,3,-5,1%[15.4 µM],5,-3.5,?
OCCN(Cc1ccccc1)CC1CCCCC1,1,4,0%,-20,-3.3,-33%[inhibitor]
CCOC(=O)c1sc2nc(CC(=O)OC)nc(N3CCN(c4ccccn4)CC3)c2c1C,13,-2,-8%,-3,-0.1,1%
O=[n+]1cc(-c2ccccc2)n([O-])c2c1CCCCC2,6,13,-14%,3,0.1,11%
CCOC(=O)C1=C(CN2CCc3ccccc32)NC(=O)NC1c1cc(C)ccc1C (stereo not drawn),2,0,1%,-3,-0.7,-1%
Cc1cc(-c2nnc(SCC(=O)Nc3ccccc3Cl)n2C)no1,5,6,3%,-5,-1.9,11%[15.4 µM]
CC1=C(C(=O)OC(C)C)C(c2ccc(C)o2)C(C(=O)OC(C)C)=C(C)N1,0,-1,3%,-3,-5.5,0%[15.4 µM]
C/C(=N\NC(=O)c1ccc(F)cc1)c1cccc(NC(=O)c2ccco2)c1,23,20,-2%,-27,-3.3,-19%
O=C(NC1CCCC1)C1C2C=CC(C2)C1C(=O)N1CCOCC1 (stereo not drawn),5,2,16%,-4,-0.8,?
O=C(NCc1ccncc1)Nc1ccc(F)cc1,-12,9,-16%,-1,-6.5,-40%[inhibitor]
Cc1ccc2c(Cl)c(C(=O)Nc3ccc4c(c3)OCO4)sc2c1,-15,-2,5%,-2,1.4,25%
COc1ccc(Cl)cc1NC(=O)NNC(=O)c1ccccn1,-7,?,7%,-9,-5.3,?
O=C(O)c1cccc(CSc2nnc(COc3ccccc3)o2)c1,13,25,-12%,-3,1.2,2%
N#CC(c1ccccc1)C(CC(=NO)c1ccccc1)c1ccccc1 (stereo not drawn),4,-4,nt,-5,-2.5,-1%
COc1ccc(NC(=S)NCCN2CCOCC2)c(OC)c1,1,-3,21%,-10,-1.7,22%
Cc1nn(CC(=O)NCCCN2CCCCC2C)c(=O)c2cccn12 (stereo not drawn),6,1,4%,-10,-0.5,?
O=c1[nH]c2ccccc2cc1-c1nnn(-c2ccc(Cl)c(Cl)c2)n1,0,4,-9%,-19,-5.9,nt
COc1ccc(/C=C(\NC(=O)c2ccc(C)cc2)C(=O)Nc2c(C)n(C)n(-c3ccccc3)c2=O)cc1,nt,1,3%,-4,-1.3,-71%[inhibitor]
CC(=O)Nc1ccc(S(=O)(=O)NCC(=O)OCC(=O)Nc2sccc2C(N)=O)cc1,nt,-1,13%,-7,-2.1,28%
CSC1=C(C#N)C(CC(C)C)C2=C(CCCC2=O)N1 (stereo not drawn),9,5,3%,2,-1.3,10%
CCCCCCNC(=O)c1cc(-c2ccco2)nc2ccccc12,7,-26,0%,11,-2.8,-26%

# Some of the entries above, reformatted.
compound | CtBP-E1A blk | Six1-Eya2 blk | gsp antag | D2 PAM | D2 ag | gsp agonist
N#CC(c1ccccc1)C(CC(=NO)c1ccccc1)c1ccccc1 (stereo not drawn) | 4 | -4 | nt | -5 | -2.5 | -1%
COc1ccc(NC(=S)NCCN2CCOCC2)c(OC)c1 | 1 | -3 | 21% | -10 | -1.7 | 22%
Cc1nn(CC(=O)NCCCN2CCCCC2C)c(=O)c2cccn12 (stereo not drawn) | 6 | 1 | 4% | -10 | -0.5 | ?
O=c1[nH]c2ccccc2cc1-c1nnn(-c2ccc(Cl)c(Cl)c2)n1 | 0 | 4 | -9% | -19 | -5.9 | nt

# Continued.
SMILES,CtBP-E1A blk,Six1-Eya2 blk,gsp antag,D2 PAM,D2 ag,gsp agonist
Cc1ccc(NC(=S)NC2CC3CCC(C2)N3Cc2ccco2)c(C)c1 (stereo not drawn),-13,-11,10%,-24,-2.1,-57%[inhibitor]
COc1c(C)cc(S(=O)(=O)NCCN2CCOCC2)c(C)c1C,5,0,9%,-3,7.4,?
COc1ccc(O)c(CN2CC3CCC(CC3)C2)c1,0,3,2%,-11,-4.5,-3%[15.4 µM]
CN(C)c1ccc(/C=N/Nc2nncc3ccccc23)cc1,1,-9,-4%,-1,0.1,?
CCOc1ccc2nc(SCC(=O)N3c4ccccc4Sc4ccccc43)c(C#N)cc2c1,0,-3,11%,-12,-1.5,?
COc1cccc(-c2nc3n(n2)C(c2ccc4c(c2)OCO4)C(C(N)=O)=C(C)N3)c1 (stereo not drawn),-13,-1,0%,-10,-0.3,2%
C/C(=C\c1cc(C(=O)O)c(C)o1)CO,-10,-2,-2%,-14,1.2,-23%
COc1c(NC(C)=O)c2c(c([N+](=O)[O-])c1OC)C(=O)OC2,-1,-3,4%,-3,-0.9,-11%[15.4 µM]
Cc1nc(N)sc1-c1nnc(SCC(=O)Nc2ccccc2C(F)(F)F)n1C,2,-2,16%,-5,-3.5,-22%
NC(=O)c1ncn([C@@H]2O[C@H](CNS(=O)(=O)c3cc4ccccc4s3)[C@@H](O)[C@H]2O)n1,7,1,16%,nt,1.6,nt
COc1ccc(NC(=O)CCC2COc3ccccc3O2)c(OC)c1 (stereo not drawn),-5,4,2%,-8,4.5,-1%
Cc1ccc(N/C=C(\C2OC(=O)c3ccccc32)[N+](=O)[O-])c(C)c1 (stereo not drawn),nt,0,-12%,-3,6.2,29%[15.4 µM]
Cc1ccc(CNC(=O)c2ccccc2SCC(=O)NCC2CCCCC2)cc1,-3,-7,-8%,-14,-2.7,-26%
CC1CCN(c2nc3c(c(=O)n(C)c(=O)n3C)n2Cc2ccccc2)CC1,-8,-1,-5%,4,-0.2,-41%[inhibitor]
CCC1(CC)C(=O)C2=C3C1[C@H](C(=O)OC)CC(C(=O)OC)C[C@H]3n1c(=O)n(C)c(=O)n1[C@H]2C (stereo partly drawn),6,6,-13%,10,1.1,nt
CNC(=O)COC(=O)c1ccc(OCC(=O)Nc2ccccc2OC)c(OC)c1,4,1,-5%,-3,-2.9,-1%[15.4 µM]
COc1ccc(CCNC(=O)c2cccc([N+](=O)[O-])c2)cc1OC,-18,17,1%,0,1.6,5%
CN(C)S(=O)(=O)N1CCN(c2cc(Cl)ccc2Cl)CC1,6,4,-27%,-25,-2.3,-29%
Cc1ccc(C)c(N2CCN(S(=O)(=O)c3ccc4[nH]c(=O)ccc4c3)CC2)c1,-5,-7,5%,-1,2.1,-4%
COc1cc(OC)cc(C(=O)NNC(=O)CCNS(=O)(=O)c2ccc(C)c(C)c2)c1,7,-4,12%,8,-2.8,-35%[inhibitor]
CC(=O)Nc1ccc(CN2CCC(N3CCC(C(=O)NC4CC4)CC3)CC2)cc1,0,-1,nt,-9,0.0,-70%[inhibitor]
Cc1ccc2nc(-c3ccc(NC(=O)CCN4C(=O)c5ccccc5C4=O)cc3)sc2c1,20,2,7%,-6,0.6,-4%
CCN1CCN(C(c2cccnc2)c2c(NC(=O)c3ccco3)sc(C)c2C)CC1 (stereo not drawn),4,-4,13%,-1,2.5,-1%
